Screens as filed in PubChem BioAssay.
NPYLR7 ag: agonists of mosquito NPYLR7 receptor, primary screen, cell-based, Aedes aegypti, calcium fluorescence, mosquito biting behavior; Aedes aegypti neuropeptide Y-like receptor 7 (NPYLR7); HEK293T NPYLR7/Galpha15, GCaMP6s calcium fluorescence; activation, % at 10 µM; 270,000 tested, 0.15% active; AID 1259423, 2018; in the data active = activation above about 40%;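 note: 0% = vehicle and 100% = reference agonist at the receptor; some compounds past the cut are filed as inactive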
NPYLR7 ag max-min: second read-out of NPYLR7 ag, no call of its own (marks repeat the call); activation, %; measured here: Max-Min RFU normalised activation; some inactives read as strong as hits;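 span of the calcium signal over five minutes; 0% = vehicle and 100% = native peptide agonist; compound fluorescence can raise it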
Numbers without * were called inactive; & = joins results of further samples. These rows are one share of the data; count on the stated rates, not on these rows.

The opening 6 entries, ahead of the listing:
mol	NPYLR7 ag max-min	NPYLR7 ag
COc1cc2c(cc1OC)C1CN(C(=O)c3cc(C(C)(C)C)nn3Cc3ccccc3)CC(=O)N1CC2 (centres undefined)	-3	-9
CCC(C)NC(=O)c1cccc([N+](=O)[O-])c1C (centres undefined)	6	1
COC(C)(C)CC(C)NCCn1ncc2ccccc2c1=O (centres undefined)	7	11
CCOc1cc2c(cc1CN1CC[C@H](CO)[C@@H](O)C1)CCC2	5	7
O=C(OC1CCOC1=O)c1cccnc1SC1CCOC1=O (centres undefined)	6	12
O=C(NCCCN1CCCC1=O)C(=O)Nc1cc2c3c(c1)CCN3C(=O)CC2	9	12

All compounds of this part (from the top)
mol	NPYLR7 ag max-min	NPYLR7 ag
COc1cc2c(cc1OC)C1CN(C(=O)c3cc(C(C)(C)C)nn3Cc3ccccc3)CC(=O)N1CC2 (centres undefined)	-3	-9
CCC(C)NC(=O)c1cccc([N+](=O)[O-])c1C (centres undefined)	6	1
COC(C)(C)CC(C)NCCn1ncc2ccccc2c1=O (centres undefined)	7	11
CCOc1cc2c(cc1CN1CC[C@H](CO)[C@@H](O)C1)CCC2	5	7
O=C(OC1CCOC1=O)c1cccnc1SC1CCOC1=O (centres undefined)	6	12
O=C(NCCCN1CCCC1=O)C(=O)Nc1cc2c3c(c1)CCN3C(=O)CC2	9	12
COc1ccc(C(=O)N(Cc2cccnc2)c2nc3ccc(Cl)cc3s2)cc1OC	-14	-24
N=c1oc2ccc3ccccc3c2cc1C(=O)Nc1ccccc1	-3	-2
Cc1ccc(C(=O)Oc2coc(CSc3ncccn3)cc2=O)cc1C	-9	-10
CC(C)CC1NC2(CCN(C(=O)C3CCCC3)CC2)N(CC(C)C)C1=O (centres undefined)	2	2
CCCCN1CC(c2nc3ccccc3n2CCOc2ccccc2OC)CC1=O (centres undefined)	0	0
CCC1CN(Cc2c(Cl)cncc2Cl)CCN1C(C)C (centres undefined)	-4	-3
Cc1ncc(C(=O)N2CCCC3(CC2)CN(C)C(=O)O3)c(-c2ccccc2)n1 (centres undefined)	34	1
CC(C)c1cccc(N(C)S(=O)(=O)c2cccc(C(=O)O)c2)c1	1	3
CSC1CCC(NC(=O)c2ccccc2NCc2cccnc2)C1 (centres undefined)	17	2
O=C(CN1Cc2ccc(N3CCOCC3)nc2C1=O)NCC1CC1	4	11

4 entries from above in another layout.
Below each SMILES – NPYLR7 ag max-min	NPYLR7 ag
N=c1oc2ccc3ccccc3c2cc1C(=O)Nc1ccccc1
  -3	-2
CCC(C)NC(=O)c1cccc([N+](=O)[O-])c1C (centres undefined)
  6	1
CSC1CCC(NC(=O)c2ccccc2NCc2cccnc2)C1 (centres undefined)
  17	2
CCCCN1CC(c2nc3ccccc3n2CCOc2ccccc2OC)CC1=O (centres undefined)
  0	0

Later entries.
mol	NPYLR7 ag max-min	NPYLR7 ag
Cc1ccc(C(=O)NS(=O)(=O)c2cc(Cl)ccc2Cl)c(=O)[nH]1	3	-2
Cc1cn2c3c(=O)n(Cc4ccccc4)c(=O)n(C)c3nc2n1C1CCCC1	9	8
CC(Sc1nnc(Cn2c(=O)sc3ccccc32)n1C)c1ccccc1 (centres undefined)	8	8
COc1cccc(Cn2ccnc2CN(Cc2cccnc2)C(=O)c2cccc(OC)c2)c1	12	5
Cc1ccccc1OCC(O)CN(C)Cc1ccc(N2CCCCC2)cc1 (centres undefined)	-2	-2
CC(NC(=O)CCc1nnc(C2(c3ccc(Cl)cc3)CCC2)o1)c1ccccc1 (centres undefined)	-4	-1
COC(=O)c1cccc(NC(=S)N[C@H]2CO[C@H]3[C@@H]2OC[C@@H]3n2cc(-c3ccccc3)nn2)c1	-13	-7
CCc1cc(S(=O)(=O)N2CCN(c3ccccc3C)CC2)ccc1OC	-7	-1
CCOC(=O)[C@@H]1CN(C(=O)c2ccc3c(c2)OCO3)[C@H]2c3ccc(OC)cc3O[C@@H]12	1	-1
CCOC(=O)CCc1c(C)nc2ncnn2c1N1CCN(S(=O)(=O)c2cn(C)cn2)CC1	4	6
Cc1cc(C(=O)Nc2cc(C)nn2-c2nc3c(F)cccc3s2)on1	-9	-6
Cc1c(C(=O)NCCC#N)sc(=O)n1Cc1ccccc1F	-2	0
Cc1[nH]n(-c2nc3ccccc3s2)c(=O)c1C(c1cccc([N+](=O)[O-])c1)C(C#N)C#N (centres undefined)	-5	-3
CC(C)c1nc(CNC(=O)CCCn2nnnc2CN2CCOCC2)cs1	-6	-3
Cc1ccc(CN(Cc2ccc(F)cc2)C(=O)CN(CCN2CCOCC2)C(=O)CCc2ccccc2)o1	3	-3
CO[C@H]1CN(C(=O)c2ccc3c(c2)OCCCO3)[C@H]2Cc3c(oc4ccccc34)[C@@H]1C2	30	22
COC1CCN(C(=O)CC(C)C)CC(=O)N(C)c2ccccc21 (centres undefined)	3	3
Cc1ccccc1OCC(=O)OCc1cc(-c2cc3ccccc3o2)on1	-3	-1
C#CCOc1cc(F)ccc1NC(=O)C1CCS(=O)(=O)C1 (centres undefined)	-8	5
CCN1CCCC(CNC(=O)c2cccc(S(C)(=O)=O)c2)C1 (centres undefined)	13	19
CCOC(=O)N1CCN(C(c2ccc(F)cc2)C2Sc3ncnn3C2=O)CC1 (centres undefined)	-4	-3
CC(=O)Nc1ccc(N2C(=O)CSC2c2ccc(F)cc2)cc1 (centres undefined)	-4	-1
COC(=O)c1ccccc1C#Cc1ccccc1C(=O)OC	-5	-2
O=C(Nc1cccc(F)c1)N1CCSC1c1ccccc1F (centres undefined)	6	4
Cn1cc(CN2CCCC(c3nc4ccccc4[nH]3)C2)c(-c2ccccc2F)n1 (centres undefined)	3	6
COc1cc(/C=C2/C(=O)N(CC(C)C)C(=S)N2C)ccc1O	4	6
CCCC(=O)Nn1cnc2c(cnn2-c2ccc(C)c(C)c2)c1=O	0	2
CCC(=O)N(CC(C)C)C1CCS(=O)(=O)C1 (centres undefined)	25	0
CSc1nc2sc(C)c(C)c2c(=O)n1C	2	1
COc1cccc(C2NC(=O)N(C)C3=C2C(=O)N(CC(=O)NCc2ccco2)C3)c1OC (centres undefined)	5	-3
O=C(CC1OC(=O)c2ccccc21)Nc1cccc2cccnc12 (centres undefined)	4	12
COCCN(CC(F)(F)F)C(=O)c1cc2cccc(F)c2o1	2	4
CCCN(Cc1ccccc1F)C1CCNCC1	1	3
C=CC[C@@H]1CC=C[C@@H](C)N1Cc1nc(-c2ccc3c(c2)OCO3)no1	-4&-6	1&-5
CC(O)c1nc2ccccc2n1Cc1ccc(Cl)c(Cl)c1 (centres undefined)	-2	2
Cc1ccc(NS(=O)(=O)N2CC(C)OCC2C)cc1S(=O)(=O)N1CCOCC1 (centres undefined)	2	5
Cc1cccn2cc(CS(=O)c3ccccc3S(C)(=O)=O)nc12 (centres undefined)	1	4
COc1ccccc1C(=O)N1CCN(C(C(=O)N2CCOCC2)C2CCCC2)CC1 (centres undefined)	0	-1
COC(=O)c1ccc(C(=O)OC)c(NC(=O)CSc2nnc3ccccn23)c1	-9	-8
Cc1cc(NC(=O)c2ccccc2C)n(-c2nc3c(c(=O)[nH]2)CCC3)n1	7	14
O=C1CCC(C(=O)OCC(=O)NC2CCCC2)=NN1	9	18
Cc1ccc2oc(C(=O)NCCc3cccs3)cc(=O)c2c1	13	1
CSc1ccccc1NC(CNS(=O)(=O)c1ccccc1)c1ccccc1 (centres undefined)	1	2
CCOc1ccc(OCC)c(S(=O)(=O)Nc2ccc(Nc3ccc(-n4ccc(C)n4)nn3)cc2)c1	-11	-3
Cc1ccc(-c2nc(COC(=O)c3nnn(-c4ccc(C)c(F)c4)c3C)c(C)o2)cc1	-3	0
CC1=NC(C)=C(C#N)C(c2ccccc2C(F)(F)F)C1C#N (centres undefined)	8	11
CC1CCC(C#N)(N(C)C(=O)CSc2nnc(C3CC3)n2C2CC2)CC1 (centres undefined)	1	2
Cc1[nH]nc(C(=O)NC2CCN(c3ccc(F)cc3)CC2)c1Br	-1	-3
CC(C)C(NC(=O)C(=O)N1CCCc2ccccc21)c1ccccn1 (centres undefined)	8	12
O=S(=O)(Nc1ccccc1NCC(F)(F)F)c1ccc(Cl)nc1	319	-4
Cn1nnc2c(N3CCN(C(=O)CCC4CCCCC4)CC3)ncnc21	20	0
COc1ccc(OC)c(-c2cccc(-c3cccc(NC(=O)c4ccc(C(F)(F)F)cc4F)c3)n2)c1	-8	-7
O=S(=O)(Nc1ccc(F)cc1F)c1ccccc1Cl	1	2
CC(C)(C)CN1CCN(Cc2cnn(-c3cccc(Cl)c3)c2)CC1CCO (centres undefined)	0	3
O=C(NCC1(c2cccc(Br)c2)CCC1)c1ccncc1	0	1
Cc1nnc(-n2ncc(C#N)c2N)c2nn(-c3ccccc3F)c(C)c12	9	11

More entries follow.
mol	NPYLR7 ag max-min	NPYLR7 ag
COc1ccccc1-c1cc(C(=O)N2CCC(C(N)=O)CC2)nc2cc(C(C)(C)C)nn12	23	18
COc1ccccc1NC(=O)N(Cc1ccco1)Cc1ccccc1OS(=O)(=O)c1ccc(F)cc1	-9	0
COc1ccc2nc(N(CCCN(C)C)C(=O)c3ccno3)sc2c1	3	0
Cc1nc2scc(C)n2c(=O)c1NC(=O)c1ccc(Br)cc1	-3	5
COCc1cc(C)nc(OCC(=O)N/N=C\c2cccc(Br)c2)c1C#N	-1	6
COC(=O)c1c(C)[nH]c(C(=O)C(C)OC(=O)C2CC2)c1C (centres undefined)	4	3
CCOC(=O)c1c(C)[nH]c(C(C)=O)c1C	-4&0	2&4
CCN1C(=O)CC(OC(C)=O)C1=O (centres undefined)	-8	-5
CCCCC(=O)O[C@]1(C(=O)CO)CCC2C3CCC4=CC(=O)CC[C@]4(C)C3[C@@H](O)C[C@@]21C (some centres undefined)	-4	-3
Cn1c(=O)c2c(ncn2CCCC(=O)Nc2sc3c(c2C(N)=O)CCCC3)n(C)c1=O	8	1
Cc1ccc(C)c(OCCCC(C)(C)C(=O)NC(c2ccc(S(C)(=O)=O)cc2)c2ccc3c(c2)CCO3)c1 (centres undefined)	2	10
COCCNc1nc(C)nc2sc(C)c(C)c12	1	3
Cc1cc(C)n2c(CNS(=O)(=O)c3c(C)cc(C(C)(C)C)cc3C)nnc2n1	13	20
CC(C)(C)C1CC=C2C(C#N)C(=N)C(C#N)(C#N)C(c3ccc(Cl)cc3)C2C1 (centres undefined)	3	6
COc1ccc(CN2C3CCC2CC(NC(=O)c2cc(F)ccc2F)C3)c(OC)c1 (centres undefined)	5	4
O=C(Nc1ccc(-c2noc(-c3ccco3)n2)cc1)c1cccs1	-12	-6
COc1ccc(C=C2SC(N3CCCCC3)=NC2=O)c(OC)c1	3	2
COCCC(=O)N1CCOCC1c1cc(C(=O)NCc2ccccc2)no1 (centres undefined)	0	3
COc1cc(NS(=O)(=O)c2ccc(N3C(=O)C4C5C=CC(C5)C4C3=O)cc2)nc(OC)n1 (centres undefined)	2	3
COc1cc2c(cc1OC)C(CNC(=O)CC(C)C)N(Cc1cccc(C)c1)CC2 (centres undefined)	11	2
CC1(C)C(c2ccco2)=[N+]([O-])C2(CCCCC/C2=N/O)N1O (centres undefined)	-22	-15
CN(Cc1n[nH]c2c1CCCC2)c1nccc(N2CCCC(O)C2)n1 (centres undefined)	-5	-1
Cn1c(SC2CCCCNC2=O)nc2ccsc2c1=O (centres undefined)	1	3
Cc1c(C(=O)NCc2ccccc2C(F)(F)F)sc(=O)n1Cc1ccccc1F	1	5
CN(C)CCN(C(=O)c1ccccc1[N+](=O)[O-])c1nc2ccc(Br)cc2s1	-11	-6
Cc1nc2sccn2c1C(=O)N(C)Cc1nc(CC(C)C)no1	2	0
Cc1cc(-n2c(C)cc(C(=O)CSc3nnc(-c4ccoc4C)n3C)c2C)no1	-2	-2
CN(Cc1nc2ccc(F)cc2[nH]1)C(=O)c1cccc2ccnn12	-2	2
COc1ccc(Oc2ccc([N+](=O)[O-])cc2C(=O)N2CCC(c3ccccc3)CC2)cc1	1	18
C=CCNCc1cnc(S(=O)(=O)Cc2ccc(F)cc2)n1C(C)C	13	24
CC(=O)NC(C(=O)N1CCN(Cc2ccc(-c3ccccc3)s2)CC1)C(C)C (centres undefined)	-3	-2
CSc1ncc(CN(C)CC2CCN(Cc3ccc(C)o3)CC2)cn1	1	5
O=C(CCc1cnn(-c2ccccc2)c1)Nc1ccc(N2CCOCC2)nc1	5	4
O=c1c2ccccc2nc(-c2ccc3ccccc3c2)n1Cc1ccco1	0	5
C1=Nc2ccccc2CN1c1ccccc1	-7	-5
N#Cc1ccsc1C(=O)N(CCc1ccccc1)C1CCOC1 (centres undefined)	5	7
COc1cccc(C(=O)N2CCN(C(C(=O)NCc3ccco3)C3CCCC3)CC2)c1 (centres undefined)	-3	-5
O=C(NCCn1nc(-c2cccs2)ccc1=O)c1cccc2ccccc12	-1	0
Cc1ccc(CNc2nccn(-c3cc(C)cc(C)c3)c2=O)cc1	-4	-1
Cn1cc(CN2CCC(n3nccc3NC(=O)C3CC3)CC2)c(-c2ccccc2)n1	8&-9	10&-6
CC(C)Oc1ccc(C(O)CNC(=O)C(C)(C)c2cccs2)cc1 (centres undefined)	1	1
